LANA-H2B inh = blocks KSHV LANA binding to histone H2A/H2B; AID 2629; inhibition, % (concentration not given with the values); Q9QR71; cell-free LANA-H2A/H2B peptide, fluorescence polarization; 320,000 compounds, 0.6% hits; in the data active = inhibition mostly above about 10%, no sharp cut-off; inactive = mostly below about 6.7%;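 note: stock transfer was 7.5 nL into about 10 µL; 0% = median of vehicle wells and 100% = median of positive control wells; one replicate is shown; the record names a cut of 25% in any replicate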
Target sequence (Q9QR71 whole entry, looked up): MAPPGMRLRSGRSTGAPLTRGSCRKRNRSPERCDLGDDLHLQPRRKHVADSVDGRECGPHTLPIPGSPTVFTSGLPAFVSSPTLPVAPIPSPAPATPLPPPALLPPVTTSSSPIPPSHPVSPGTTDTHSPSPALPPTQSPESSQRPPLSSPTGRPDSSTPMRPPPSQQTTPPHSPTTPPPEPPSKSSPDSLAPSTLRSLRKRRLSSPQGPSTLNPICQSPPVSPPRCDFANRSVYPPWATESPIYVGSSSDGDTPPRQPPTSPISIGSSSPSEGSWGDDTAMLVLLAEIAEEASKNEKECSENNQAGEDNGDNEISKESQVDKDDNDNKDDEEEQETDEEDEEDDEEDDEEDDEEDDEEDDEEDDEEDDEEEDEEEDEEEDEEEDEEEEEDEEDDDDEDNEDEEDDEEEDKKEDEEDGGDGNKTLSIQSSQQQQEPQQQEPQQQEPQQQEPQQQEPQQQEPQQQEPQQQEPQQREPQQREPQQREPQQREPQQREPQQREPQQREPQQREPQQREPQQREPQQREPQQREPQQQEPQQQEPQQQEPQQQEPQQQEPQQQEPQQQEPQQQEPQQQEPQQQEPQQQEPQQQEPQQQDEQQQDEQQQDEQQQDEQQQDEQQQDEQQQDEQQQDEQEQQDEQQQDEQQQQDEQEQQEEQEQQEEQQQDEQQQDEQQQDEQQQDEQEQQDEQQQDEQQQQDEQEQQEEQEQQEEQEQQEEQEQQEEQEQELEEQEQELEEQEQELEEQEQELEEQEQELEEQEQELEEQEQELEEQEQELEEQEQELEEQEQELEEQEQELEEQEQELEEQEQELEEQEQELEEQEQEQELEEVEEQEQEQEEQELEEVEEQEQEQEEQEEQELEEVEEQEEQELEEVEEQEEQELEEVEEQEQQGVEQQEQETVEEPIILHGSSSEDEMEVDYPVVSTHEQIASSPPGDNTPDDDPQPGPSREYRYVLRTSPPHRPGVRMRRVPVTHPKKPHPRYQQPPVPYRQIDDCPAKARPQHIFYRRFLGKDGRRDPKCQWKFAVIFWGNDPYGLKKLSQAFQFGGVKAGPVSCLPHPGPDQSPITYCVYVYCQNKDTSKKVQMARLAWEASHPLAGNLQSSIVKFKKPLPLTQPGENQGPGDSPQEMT
Vif A3G = inhibitors of Vif binding to APOBEC3G peptide, primary screen, biochemical, TR-FRET, GST-Vif 1-94, biotin-A3G peptide, dose response retest (AID 1117319). inhibition, %, or IC50 in µM where a hit was titrated. 260,000 compounds, 0.57% hits. TR-FRET GST-Vif / biotin-A3G peptide binding; higher % means a stronger effect; test concentration not given here; strong numbers were not always called active;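 active = above the screen mean plus three standard deviations and confirmed in dose response; inconclusive = results disagree or hit not tested in dose response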;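 note: Vif residues 1-94 fused to GST binding biotinylated APOBEC3G peptide 110-148; 0% = full assay without inhibitor and 100% = GST in place of GST-Vif; retest series ran down from 100 µM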
HNF4A DNA FP = change in binding of human HNF4 alpha to DNA. HNF4a-FITC DNA binding, fluorescence polarization, 1 h. P41235. activity change, % at 10 µM. AID 1224865. 360,000 compounds, 0.3% hits; in the data active = activity change above about 30%, passing the limit was not always enough;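 note: controls were the assay level and a saturating level of protein; the project sought stronger binding though the title names inhibitors; some compounds called inactive have numbers as strong as hits; positive values seem to mean higher polarization but the record does not say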
UCH37 DUB inh = inhibitors of human deubiquitinating enzyme UCH37; Q9Y5K5; purified proteasome/UCH37, Ub-AMC cleavage fluorescence; inhibition, % (no concentration beside the values); 330,000 compounds, 0.33% hits;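 active = mean of two replicates above 20%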;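 note: 0% = compound-free wells with enzyme and 100% = wells lacking proteasome; stock transfer was 100 nL into about 20 µL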
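system = Proteasome-associated human UCH37 deubiquitinase | amount = 0.15 nM proteasome as dispensed | medium = pH 7.4 Tris-HCl (50 mM) with ovalbumin, ATP-MgCl2, DTT | incubation = 30 min preincubation with enzyme, 25 min cleavage at room temperature | detection = AMC fluorescence 355/460 nm | read-out basis = percent inhibition | controls = no-proteasome and no-compound wells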
B2AR ag = agonists of human beta-2 adrenergic receptor inducing internalization; Am2.2-beta2AR cells, FAP receptor internalization, flow cytometry; reference of the scale not given here; response, % (concentration not given with the values); 340,000 compounds, 0.43% hits; P07550;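 active = response above a set limit, near 3 SD of response in nonfluorescent compounds, cut at about 42% in these data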;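 note: stock transfer was 100 nL into about 11 µL; a reference agonist was the positive control; negative values mostly stem from fluorescent compounds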
E coli growth = blocks Escherichia coli growth | 330,000 compounds, 0.21% hits | OD600, 23 h; hits give low values | OD600 absorbance (no concentration beside the values) | AID 1053175;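 active = OD600 absorbance below the run mean of sample wells minus 3.6 SD, in any replicate, cut at about 0.56 in these data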;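 note: stock transfer was 300 nL into about 60 µL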
Bfl-1 A1 inh = inhibitors of the anti-apoptotic protein A1, read as caspase activation. AID 2462. MEF A1-2A-BIM cells, Caspase-Glo 3/7 luminescence, 3 h; percent of clofoctol response, vehicle zero. 330,000 compounds, 0.066% hits. caspase activation, % (concentration not given with the values);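 active = over half of replicate activation scores above 10%, or exactly half above 10 with the replicate mean above 10; inconclusive = replicate mean below 10 yet half the replicates above 10; inactive = over half of replicates below 10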;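 note: wells of about 30 µL received 50 nL stock; many hits fall short of the cut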
The depositor's hits bear a star; u = inconclusive; x = not tested or not shown.

No.	Compound	LANA-H2B inh	Vif A3G	HNF4A DNA FP	UCH37 DUB inh	B2AR ag	E coli growth	Bfl-1 A1 inh
1	COc1ccc(-n2cnc3sc(-c4ccccc4)cc3c2=O)cc1	8.9	-0.5%	-1.0	-16.9	4.6	0.69	-2.0
2	CC12CCC(=O)N1C(C(=O)OCC(=O)Nc1cccc(Br)c1)CS2 (stereo unspecified)	-3.6	-0.6%	0.3	4.9	0.6	0.737	0.4
3	O=C(CN(Cc1ccccc1Cl)C(=O)CNS(=O)(=O)c1ccc(F)cc1)NCC1CCCO1 (stereo unspecified)	1.4	3.1%	-4.6	5.2	-1.8	0.655	0.6
4	O=C(CC(=O)N/N=C/c1ccccc1)NCc1ccccc1	2.4	-3.4%	-1.4	x	0.5	x	1.1
5	CC1CCCC(C)N1/N=C/c1ccc(O)c(O)c1 (stereo unspecified)	5.5	30.9%	0.0	x	3.0	x	0.5
6	O=C1C2C3C=CC(C3)C2C(=O)N1CCCCN1C(=O)C2C3C=CC(C3)C2C1=O (stereo unspecified)	-1.9	u	-3.2	3.4	-9.0	0.694	0.3
7	CCOc1ccccc1NC(=O)COC(=O)c1ccc2ccccc2n1	111.2*	-44.2%	10.1	0.5	3.5	0.679	-0.4
8	CC(C)NS(=O)(=O)c1ccc(N2C(=O)c3ccccc3C2=O)cc1	-1.0	4.4%	-0.6	1.6	-6.8	0.756	0.4
9	C1=CC2CC1CC2CNCc1ccco1 (stereo unspecified)	-2.4	-2.4%	-0.3	3.9	2.2	0.71	1.0
10	CN(CC(=O)Nc1ccccc1Cl)C(=O)CCNC(=O)Nc1ccccc1	3.2	x	-1.6	-2.4	-4.3	0.635	-0.6
11	COc1cccc(/C=C/c2onc(C)c2S(=O)(=O)N2CCC(C(=O)NC3CCCCCC3)CC2)c1	-1.0	x	9.6	-14.7	-4.1	0.705	-0.3
12	COc1ccc(C2/C=C\CN(C(=O)c3ccc(C)cc3)[C@H](Cc3ccccc3)C(=O)N2Cc2ccc(F)cc2)cc1 (stereo partly specified)	-4.0	x	0.0	3.6	1.6	x	0.6
13	Cc1ccc(-n2nc3c([n+]2[O-])CCc2nonc2-3)cc1	-3.6	-3.6%	1.4	1.1	-2.7	0.642	-0.8
14	CCOc1ccccc1CN1CCNC(=O)C1CC(=O)NCc1cc(C)n(C)n1 (stereo unspecified)	-0.3	1.8%	2.4	1.8	9.4	0.682	-2.6
15	C=CC[C@@H](CC(=O)NCCO)C(=O)NC[C@H](OC(=O)[C@@H](CC=C)Cc1ccc(F)cc1)c1ccccc1	3.8	x	-1.8	3.3	9.7	x	0.6
16	Brc1ccc(C2NCCS2)cc1 (stereo unspecified)	-1.5	1.9%	7.1	2.8	-1.2	0.673	-0.7
17	COc1cc(NC(=O)CN(c2ccc(C)cc2)S(=O)(=O)c2c(C)noc2C)cc(OC)c1	-2.8	x	4.5	6.2	6.4	0.678	0.5
18	O=C(CN1C(=O)NC2(CCCCCCC2)C1=O)NC(=O)NCc1ccco1	8.0	0.1%	-3.1	1.8	2.0	0.669	-0.3
19	O=C(Cc1cccs1)NCC1CCCO1 (stereo unspecified)	0.9	2.8%	-1.1	2.7	-0.9	0.664	1.8
20	COC(=O)CC/C(O)=C1\C(=O)CC(C)(C)CC1=Nc1ccccc1OC	3.1	1.0%	2.1	6.9	-0.7	0.702	0.6
21	COc1ccc(N2CC(C(=O)Nc3cccc(C)n3)CC2=O)cc1 (stereo unspecified)	-3.3	28.3%	-0.1	-1.8	0.0	0.674	1.7
22	CCCC1(CCC)NC(=O)N(CC(=O)Nc2cccc(OC)c2)C1=O	-15.7	-3.1%	-0.3	4.0	-5.8	0.696	-0.9
23	O=S(=O)(Nc1ccc(Cc2ccncc2)cc1)N1CCCC1	4.2	-1.8%	-2.7	0.6	-13.2	0.706	0.5
24	Cc1cccc(C)c1N/C=C/c1onc(C)c1[N+](=O)[O-]	-0.1	20.6%	-1.2	3.2	5.3	0.739	0.2
25	COc1cc(/C=C/C(=O)OCC(=O)N2CCC(C)CC2)ccc1O	0.1	x	5.9	-16.5	1.5	0.689	2.6
26	O=C(C1Cc2ccccc2CN1C(=O)c1ccco1)N1CCN(c2ccccc2)CC1 (stereo unspecified)	0.3	x	-0.2	0.7	5.0	0.695	0.6
27	C[C@H](CO)N1C[C@H](C)[C@@H](CN(C)Cc2ccc(-c3ccccc3)cc2)Oc2c(NS(=O)(=O)c3cn(C)cn3)cccc2C1=O	-1.0	x	4.2	-4.8	-3.7	x	1.7
28	O=C(O)C1CCCCC1C(=O)Nc1ccc(OCc2ccccc2)cc1 (stereo unspecified)	-2.7	x	-2.1	2.8	2.5	0.684	-0.8
29	c1ccc(COC(CN2CCCCCC2)CN2CCCCCC2)cc1	-0.1	-1.1%	3.5	3.0	-4.1	0.621	0.3
30	COCCNC(=O)CCc1nnc2ccc(N3CCC(C)CC3)nn12	0.9	1.5%	9.7	1.8	-6.3	0.676	0.3
31	O=C(NC1CCCCC1)N(Cc1nc2ccccc2c(=O)[nH]1)C1CCCCC1	2.1	-1.4%	1.3	-1.8	-7.5	0.701	-0.9
32	O=C(CC(=O)NN=C1CCCCCC1)NCc1cccnc1	-6.7	3.7%	1.3	-2.4	0.3	0.666	-0.2
33	Cc1cnc(C(=O)OCC(=O)N(Cc2ccccc2)C(C)C)cn1	3.2	1.5%	4.6	3.2	6.0	0.645	0.8
34	Cc1ccc(C)c(N2CCN(C(=O)C3CCC3)CC2)c1	-1.9	x	0.4	2.6	-0.3	0.685	-0.4
35	CCc1c(C)sc(NC(=O)C2CCCO2)c1C#N (stereo unspecified)	9.5	2.7%	3.9	-2.7	-0.4	0.681	0.1
36	N#Cc1cn(CC(=O)N2CCc3ccccc3C2)c2ccccc12	2.1	3.1%	0.3	0.7	3.8	0.703	0.5
37	COc1ccc2[nH]c(=O)c(CN(Cc3cccs3)C(=S)NCC3CCCO3)cc2c1 (stereo unspecified)	-2.2	-1.9%	3.7	-35.6	4.2	0.681	1.6
38	O=C(CCCn1cc([N+](=O)[O-])cn1)N1CCCCC1	-0.6	u	-1.9	-0.8	-4.4	0.693	0.6
39	O=C(c1ccco1)N(Cc1ccccc1)Cc1ccccn1	-5.3	x	4.5	-0.3	-7.8	0.668	0.0
40	CC(C)(C)C(=O)Cn1c[n+](N)cn1	4.0	2.7%	1.6	0.2	-0.5	0.728	0.6
41	Cc1ccc2nc(SC(C)C(=O)N3CCCC3)[nH]c2c1 (stereo unspecified)	1.5	19.6%	0.3	0.9	-4.9	0.682	-0.1
42	N/C(=N\N=C\c1ccc([N+](=O)[O-])cc1)c1nonc1N	-2.4	-6.1%	0.5	x	-7.8	x	-8.0
43	O=C1COc2ccc(NC(=O)N3CCN(c4ccc(F)cc4)CC3)cc2N1	-8.9	6.8%	-0.4	-0.1	14.5	0.702	0.2
44	O=C(NCc1ccco1)C1CC(c2cc(C(F)(F)F)cc(C(F)(F)F)c2)=NO1 (stereo unspecified)	5.6	23.4%	1.0	3.9	24.5	0.684	-0.6
45	Cc1ccc(OCCNC(=O)/C=C/c2ccccc2)cc1	1.1	4.2%	0.6	1.8	4.0	0.673	-0.1
46	COc1ccc(NC(=O)CSc2ccc(-c3ccco3)nn2)cc1	-5.3	-2.6%	1.2	3.7	-15.2	0.668	-0.9
47	CCN(CC)S(=O)(=O)c1cccc(-c2n[nH]c(=S)n2/N=C/c2ccc(OC(F)F)cc2)c1	-5.6	5.8%	-0.3	x	8.2	x	0.1
48	C/C(=N/NC(=O)c1cnccn1)c1ccncc1	6.5	2.2%	-1.8	x	-0.8	x	0.3
49	O=C(Nc1cccc(C(F)(F)F)c1)c1cc(-c2ccco2)on1	7.2	x	7.8	1.7	12.9	0.712	1.3
50	Nc1c(O)cccc1C(=O)O	-1.5	x	-1.0	-18.7	-10.9	0.703	-0.4
51	COCc1ccc(CN2CCCC(CO)(Cc3ccccc3C)C2)o1 (stereo unspecified)	1.2	7.9%	4.0	2.8	5.1	0.635	0.4
52	Cc1ccc2c(c1)c1c3n2CCN(C(=O)CN2CCN(C)CC2)C3CCC1 (stereo unspecified)	-2.3	-1.2%	-4.2	-3.7	13.9	0.714	0.5
53	CCNC(=S)N(CCCN(C)C)Cc1cc2cc3c(cc2[nH]c1=O)OCCO3	2.5	x	-5.2	-88.6	-6.0	0.693	0.4
54	COc1ccccc1N1CCN(Cc2ccsc2)CC1	-4.0	8.2%	5.5	2.9	3.5	0.64	-0.5
55	Cc1cc(C)cc(N2C(N)=NC(N)=NC2c2cccc(Cl)c2)c1 (stereo unspecified)	-2.2	4.9%	6.0	2.3	6.6	0.67	0.9
56	CCOC(=O)c1c(NC(=O)COc2ncnc3ccccc23)sc(C(C)=O)c1C	0.3	-34.1%	6.5	2.0	-2.5	0.71	-0.7
57	CC(=O)N1CCN(C(=O)c2ccc3c(c2)OCO3)CC1	-6.0	1.7%	1.0	4.7	-0.4	0.693	1.3
58	COc1ccc(CNC(=O)c2ccc(N3CCOCC3)c([N+](=O)[O-])c2)cc1	-2.3	-6.2%	3.8	3.6	-0.7	0.657	0.6
59	CCn1c2ccccc2c2cc(C3N=C(N)Nc4nc5ccccc5n43)ccc21 (stereo unspecified)	-1.7	u	-1.5	-40.5	0.6	0.729	0.3
60	O=C(c1cc2ccccc2oc1=O)N(Cc1ccc(F)cc1)C1CCS(=O)(=O)C1 (stereo unspecified)	4.5	4.6%	0.6	-1.0	-3.3	0.631	-0.2

Following part:
No.	Compound	LANA-H2B inh	Vif A3G	HNF4A DNA FP	UCH37 DUB inh	B2AR ag	E coli growth	Bfl-1 A1 inh
61	COc1ccc(CNC(=O)CSc2nnc3c(n2)[nH]c2ccc(F)cc23)cc1	2.6	x	-10.5	-4.9	-3.2	0.687	0.5
62	O=C(CSc1nc(-c2ccc(F)cc2)cs1)N1CCN(C(=O)c2ccco2)CC1	1.3	0.0%	2.1	3.5	-10.8	0.693	-1.6
63	O=C(O)c1cccc(-n2cccc2/C=C2\SC(=O)N(Cc3ccccc3F)C2=O)c1	1.6	u	-21.8	x	2.4	x	0.9
64	CCCCn1c(CCn2nc(C)c(Br)c2C)n[nH]c1=S	1.1	8.8%	3.9	0.9	1.3	0.738	1.1
65	CSc1ncccc1C(=O)OCC(=O)NC(C)(C)C	-3.0	-14.8%	1.1	2.8	-3.7	0.704	0.3
66	COc1cc(C(=O)Nc2cccc3c2CCCC3)cc(OC)c1OC	-1.0	x	1.9	-0.4	4.3	0.715	-0.8
67	O=C(N/N=C/c1c[nH]c2ccccc12)c1cc(Cl)ccc1O	-3.2	1.1%	0.1	x	10.5	x	-1.8
68	COc1cccc(CNCCNC(=O)c2nonc2N)c1	1.1	20.1%	1.3	3.4	-2.8	0.653	0.0
69	CC(=O)Nc1cccc(NC(=O)CSc2nnc3ccccn23)c1	0.8	-7.2%	0.8	2.8	8.4	0.719	0.0
70	CCS(=O)(=O)Nc1ccc(C2=NN(C(=O)c3ccco3)C(c3ccco3)C2)cc1 (stereo unspecified)	x	2.4%	-0.5	4.2	2.6	0.695	0.3
71	Cc1nnc(NC(=O)CCN2C(=O)/C(=C\c3ccccc3)SC2=S)s1	1.9	-4.8%	-1.3	1.4	-8.1	0.745	0.4
72	Clc1cccc(OCCN2CCN(CCOc3cccc(Cl)c3)CC2)c1	-2.0	x	2.4	x	-4.6	x	0.0
73	Cn1c(-c2sccc2OCc2cccc(C(F)(F)F)c2)n[nH]c1=S	1.0	5.7%	-4.3	-6.2	-8.7	0.682	0.0
74	Cc1nc(-c2cccc(NC(=O)Cc3ccccc3)c2)cs1	3.1	16.7%	-3.4	0.7	3.6	0.647	1.0
75	Nn1cnn(Cc2ccccc2)c1=S	3.6	-1.3%	-2.4	-1.8	-17.9	0.692	0.9

Screens as filed in PubChem BioAssay.
